Compound activity deposited in PubChem by Broad Institute.
Vaccinia inh = blocks a specific stage of Vaccinia orthopoxvirus infection; Vaccinia-infected cells, mCherry/Venus stage reporter fluorescence; hits give low values; some inactives read as strong as hits; activity change (mCherry), % (no concentration beside the values); 89,000 tested, 0.01% active; AID 1053133;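 active means mCherry past -33% and 40 or more points under the early reporter, replicates agreeing; inconclusive means past -33% without that gap or agreement; tested in A549 cells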;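 further: scaled between vehicle wells and reference inhibitor wells; 23 nL library stock went into each well; one replicate is shown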
Vaccinia inh Venus = further read-out of Vaccinia inh, marked with its call; activity change (Venus), %; measured here: Venus reporter, other viral stage;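 negative = less Venus signal; first of two replicates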
Numbers without * were called inactive; ? = inconclusive; . = no result given; & = joins results of further samples.

SMILES | Vaccinia inh | Vaccinia inh Venus
Cc1cccc(-c2ccc([C@H]3[C@@H](CO)N4CCCCN(CCC(F)(F)F)C[C@@H]34)cc2)c1 | ? | .
COc1ccc(C#Cc2cnc3c(c2)C(=O)N([C@@H](C)CO)C[C@H](C)[C@H](CN(C)C(=O)CN(C)C)O3)cc1 | -4 | 5
Cc1noc(C)c1NC(=O)N(C)C[C@H]1OCCCC[C@H](C)Oc2ccc(NS(=O)(=O)c3ccccc3)cc2C(=O)N([C@@H](C)CO)C[C@@H]1C | 22 | 7
C[C@H]1CN([C@@H](C)CO)S(=O)(=O)c2ccc(-c3cccc(F)c3)cc2O[C@@H]1CN(C)C(=O)Nc1cc(F)ccc1F | ? | .
CN1c2ccc(-c3cccc(C#N)c3)cc2[C@@H]2[C@@H](CCN2S(=O)(=O)c2ccccc2F)[C@H]1CO | 26 | 7
CNC(=O)C[C@@H]1CC[C@H]2[C@H](COc3ccc(NC(=O)C4CCCCC4)cc3C(=O)N2C)O1 | 21 | 18
C[C@H](CO)N1C[C@H](C)[C@@H](CN(C)CC2CC2)Oc2ccc(NS(=O)(=O)c3cn(C)cn3)cc2C1=O | -1 | 1
C[C@@H]1CN([C@@H](C)CO)C(=O)c2cc(C3=CCCCC3)cnc2O[C@@H]1CN(C)C(=O)c1ccc2c(c1)OCO2 | -24 | -31
CC(C)NC(=O)N(C)C[C@H]1Oc2ncc(C#Cc3ccncc3)cc2C(=O)N([C@H](C)CO)C[C@H]1C | 1 | 10
O=C(C1CCC1)N1[C@H](CO)[C@@H](c2ccccc2)C12CN(CCC(F)(F)F)C2 | 14 | 24
CCCNC(=O)N1[C@@H](C#N)[C@@H](c2ccc(C#Cc3cccc(F)c3)cc2)[C@@H]1CO | ? | .
O=C(C[C@H]1CC[C@H](NC(=O)Nc2cc(F)ccc2F)[C@H](CO)O1)NCc1ccccn1 | 6 | 4
CCCC#Cc1ccc2c(c1)O[C@@H](CN(C)C(=O)CC1CC1)[C@@H](C)CN([C@H](C)CO)S2(=O)=O | -17 | -15
CC(=O)N1CCCCN2[C@H](CO)[C@H](c3ccc(-c4cccc(C)c4)cc3)[C@@H]2C1 | -14 | -14
Fc1cccc(-c2ccc(C3[C@@H]4CN(Cc5ccccc5F)C[C@H]3N4)cc2)c1 (stereo partly drawn) | ? | -10
COCC(=O)N1C[C@@H](C)[C@H](OC)CN(C)C(=O)c2ccc(NC(=O)c3cc(C)on3)cc2OC[C@@H]1C | 2 | 0
C[C@@H]1CN([C@H](C)CO)C(=O)Cc2cc(NC(=O)NC3CCCCC3)ccc2O[C@H]1CN(C)Cc1ccc(Oc2ccccc2)cc1 | ? | .
Cc1ccc(S(=O)(=O)N(C)C[C@H]2Oc3c(NS(=O)(=O)c4cccs4)cccc3C(=O)N([C@H](C)CO)C[C@H]2C)cc1 | -5 | -8
CO[C@@H]1CN(C)C(=O)c2ccc(NC(C)=O)cc2OC[C@H](C)N(Cc2ccncc2)C[C@@H]1C | 5 | 6
O=C(C[C@H]1C[C@@H]2c3cc(NS(=O)(=O)c4ccc(F)cc4)ccc3O[C@@H]2[C@@H](CO)O1)NCCN1CCCCC1 | 13 | 14

Given with tabs: part of the list above
structure	Vaccinia inh	Vaccinia inh Venus
Fc1cccc(-c2ccc(C3[C@@H]4CN(Cc5ccccc5F)C[C@H]3N4)cc2)c1 (stereo partly drawn)	?	-10
CN1c2ccc(-c3cccc(C#N)c3)cc2[C@@H]2[C@@H](CCN2S(=O)(=O)c2ccccc2F)[C@H]1CO	26	7
O=C(C[C@H]1CC[C@H](NC(=O)Nc2cc(F)ccc2F)[C@H](CO)O1)NCc1ccccn1	6	4
CO[C@@H]1CN(C)C(=O)c2ccc(NC(C)=O)cc2OC[C@H](C)N(Cc2ccncc2)C[C@@H]1C	5	6
C[C@@H]1CN([C@@H](C)CO)C(=O)c2cc(C3=CCCCC3)cnc2O[C@@H]1CN(C)C(=O)c1ccc2c(c1)OCO2	-24	-31
C[C@H](CO)N1C[C@H](C)[C@@H](CN(C)CC2CC2)Oc2ccc(NS(=O)(=O)c3cn(C)cn3)cc2C1=O	-1	1

New compounds follow.
SMILES | Vaccinia inh | Vaccinia inh Venus
COCC#Cc1ccc2c(c1)O[C@@H](CN(C)Cc1cncnc1)[C@@H](C)CN([C@H](C)CO)S2(=O)=O | 17 | 3
CCNC(=O)Nc1ccc2c(c1)C(=O)N(C)[C@H]1CC[C@H](CC(=O)NCC3CCCCC3)O[C@@H]1CO2 | 5 | 15
O=C(Nc1ccc2c(c1)[C@@H]1C[C@@H](CC(=O)N3CCc4ccccc4C3)O[C@@H](CO)[C@@H]1O2)C1CCC1 | -6 | -5
CCC(=O)N1C[C@@H](C)[C@H](OC)CN(C)C(=O)c2ccc(NC(=O)c3ccc(F)cc3)cc2OC[C@@H]1C | 8 | 9
COc1ccccc1NC(=O)N[C@@H]1C=C[C@H](CC(=O)N2CCC(Cc3ccccc3)CC2)O[C@H]1CO | -32 | -19
CCC(=O)N(C)C[C@@H]1Oc2ncc(C3=CCCC3)cc2C(=O)N([C@@H](C)CO)C[C@@H]1C | 22 | 20
CC(=O)N1CCCCN2[C@H](CO)[C@@H](c3ccc(-c4ccc(F)cc4)cc3)[C@H]2C1 | -1 | -1
C[C@H](CO)N1C[C@H](C)[C@H](CN(C)C(=O)CCC(F)(F)F)OCCCC[C@H](C)Oc2ccc(NC(=O)CCC(F)(F)F)cc2C1=O | -1 | -3
CCC(=O)N1[C@@H](CO)[C@@H](c2ccccc2)C12CN(C(=O)c1ccncc1)C2 | -7 | 1
C[C@H](CO)N1C[C@H](C)[C@H](CN(C)C(=O)NC2CCCCC2)Oc2ccc(NC(=O)Nc3ccc(C(F)(F)F)cc3)cc2C1=O | -24 | -14
Cc1noc(C)c1NC(=O)N(C)C[C@@H]1OCCCC[C@@H](C)Oc2ccc(NS(=O)(=O)c3ccc(Cl)cc3)cc2C(=O)N([C@@H](C)CO)C[C@H]1C | 22 | 7
COc1ccccc1S(=O)(=O)N[C@@H]1CC[C@H](CCn2cc(C3CCCCC3)nn2)O[C@@H]1CO | -5 | -3
COc1cccc(S(=O)(=O)N2C[C@H](O)COC[C@@H]3O[C@H](CC(=O)N4CCN(C)CC4)CC[C@H]32)c1 | 15 | 4
CC(=O)N(CC1CCC1)C[C@H]1N[C@H](CO)[C@@H]1c1ccc(C2=CCCC2)cc1 | ? | .
C[C@H](CO)N1C[C@H](C)[C@H](CN(C)S(=O)(=O)c2ccc(Cl)cc2)Oc2c(NS(=O)(=O)c3ccc(Cl)cc3)cccc2C1=O | ? | .
Cc1cc(C(=O)Nc2cccc3c2O[C@H](CN(C)Cc2ccc(Cl)c(Cl)c2)[C@@H](C)CN([C@@H](C)CO)C3=O)n(C)n1 | -14 | -9
C[C@H](CO)N1C[C@H](C)[C@@H](CN(C)Cc2ccncc2)Oc2c(NC(=O)c3cnccn3)cccc2C1=O | 10 | -4
COc1ccccc1CN1CC[C@@H]2[C@H]1c1cc(-c3ccc(C(=O)N(C)C)cc3)ccc1N[C@@H]2CO | ? | .
O=C(Cc1ccccn1)NCC[C@H]1CC[C@@H](NS(=O)(=O)c2ccccc2)[C@@H](CO)O1 | 13 | 14
O=C(c1ccc(F)cc1)N1CC(=O)N2[C@H](C1)[C@H](c1ccc(C#CC3CCCCC3)cc1)[C@@H]2CO | ? | .
C[C@@H]1CN([C@H](C)CO)S(=O)(=O)c2ccc(-c3cccc(F)c3)cc2O[C@H]1CN(C)C(=O)C1CC1 | 6 | -3
O=C(Nc1cccc(F)c1)N1CCCCN2[C@@H](CO)[C@@H](c3ccc(-c4ccccc4F)cc3)[C@@H]2C1 | ? | .
CC(C)CC#Cc1ccc2c(c1)O[C@H](CN(C)Cc1ccccn1)[C@H](C)CN([C@H](C)CO)S2(=O)=O | -34 | -27
COCC#Cc1ccc2c(c1)O[C@@H](CN(C)Cc1ccc3c(c1)OCO3)[C@H](C)CN([C@H](C)CO)S2(=O)=O | ? | .
C[C@H](CO)N1C[C@H](C)[C@@H](CN(C)Cc2ccncc2)OCCCC[C@H](C)Oc2ccc(NC(=O)CCCN(C)C)cc2C1=O | 14&15 | 7&13
C[C@@H]1CN([C@H](C)CO)S(=O)(=O)c2ccc(C#CCN(C)C)cc2O[C@@H]1CN(C)Cc1ccncc1 | 0 | -11
C[C@@H]1CN([C@H](C)CO)C(=O)c2cc(NC(=O)Cc3cn(C)c4ccccc34)ccc2O[C@@H]1CN(C)Cc1ccccc1 | -8 | 3
C[C@H](CO)N1C[C@H](C)[C@H](CN(C)C(=O)NC2CCCCC2)OCCCC[C@H](C)Oc2ccc(NC(=O)Nc3cccc4ccccc34)cc2C1=O | 19 | 24
C[C@@H]1CN([C@@H](C)CO)C(=O)Cc2cc(NS(=O)(=O)c3ccc(F)cc3)ccc2O[C@@H]1CN(C)Cc1ccccc1 | -27 | -21
C[C@H](CO)N1C[C@H](C)[C@@H](CN(C)Cc2cccc(F)c2)Oc2ncc(C#CCc3ccccc3)cc2C1=O | ? | .
C[C@H](CO)N1C[C@H](C)[C@H](CN(C)C(=O)Cc2cccnc2)Oc2cc(-c3cncnc3)ccc2S1(=O)=O | 16 | 8
C[C@H](CO)N1C[C@H](C)[C@H](CN(C)Cc2ccccc2)Oc2ccc(NC(=O)Nc3ccc(F)cc3)cc2CC1=O | -6 | -2
C[C@H]1CN([C@@H](C)CO)C(=O)Cc2cc(NC(=O)C3CC3)ccc2O[C@H]1CN(C)Cc1ccc(Oc2ccccc2)cc1 | -26 | -14
O=C(NCC[C@@H]1CC[C@H](NS(=O)(=O)c2cccc(F)c2)[C@H](CO)O1)C1CC1 | 9 | 1
N#C[C@@H]1[C@@H](c2ccc(-c3ccncc3)cc2)[C@@H](CO)N1C(=O)Cc1ccccc1 | 18 | 21
CC(C)NC(=O)N1[C@@H](C#N)[C@@H](c2ccc(-c3ccc(F)cc3)cc2)[C@@H]1CO | -16 | -12
CCNC(=O)[C@H]1[C@H](CO)[C@H]2Cn3c(ccc(-c4ccccc4)c3=O)[C@H]2N1Cc1ccc2c(c1)OCO2 | -14 | -13
O=C(C[C@@H]1CC[C@H](NC(=O)Nc2cc(F)ccc2F)[C@@H](CO)O1)NCc1ccncn1 | 13 | 18
CC(C)NC(=O)N(C)C[C@H]1Oc2ncc(C#CC3CC3)cc2C(=O)N([C@@H](C)CO)C[C@H]1C | 9 | 5
CO[C@H]1CN(C)C(=O)c2cc(NS(C)(=O)=O)ccc2OC[C@H](C)N(Cc2ccccc2)C[C@@H]1C | -10 | 4
C[C@H]1CN([C@@H](C)CO)C(=O)c2cc(NS(C)(=O)=O)ccc2O[C@H]1CN(C)Cc1ccc(C(=O)Nc2ccccc2N)cc1 | -5 | 6
C[C@@H]1CN([C@@H](C)CO)C(=O)c2cc(NC(=O)Nc3ccc(F)cc3)ccc2O[C@@H](C)CCCCO[C@H]1CN(C)Cc1ccccc1 | ? | .
O=C(C1CC1)N1CC2(C1)[C@H](c1ccccc1)[C@@H](CO)N2Cc1ccccc1F | 0 | 2
Cc1noc(C)c1NC(=O)Nc1ccc2c(c1)C(=O)N([C@H](C)CO)C[C@@H](C)[C@@H](CN(C)Cc1ccc(C(=O)O)cc1)O2 | 20 | 11
CCC(=O)N(C)C[C@@H]1Oc2ncc(C#Cc3ccccc3OC)cc2C(=O)N([C@@H](C)CO)C[C@@H]1C | -8 | -7
C[C@@H]1CN([C@H](C)CO)C(=O)c2cc(NC(=O)CCC(F)(F)F)ccc2O[C@@H]1CN(C)Cc1ccc(-c2ccccc2)cc1 | ? | .
O=C(Nc1ccc(Cl)cc1)N1C[C@@H]2[C@H](c3ccccc31)[C@@H](CO)N2C(=O)C1CC1 | 1 | 0
COc1ccc(NC(=O)N2CC[C@@H]3[C@@H](CO)N(C)c4ccc(-c5cccc(C(=O)N(C)C)c5)cc4[C@@H]32)cc1 | -5 | -6
CNC[C@@H]1Oc2cc(C#CC3(O)CCCC3)ccc2S(=O)(=O)N([C@@H](C)CO)C[C@H]1C | -6 | 0
Cc1noc(C)c1S(=O)(=O)N(C)C[C@@H]1OCc2cn(nn2)CCCC(=O)N([C@@H](C)CO)C[C@@H]1C | 3 | 10
CCC(=O)N1CC2(C1)CN(C(=O)CN1CCOCC1)[C@H](CO)c1c2c2ccc(OC)cc2n1C | 12 | 14
Cc1ccc(S(=O)(=O)N(C)C[C@@H]2OCCCC[C@@H](C)Oc3ccc(NC(=O)Nc4ccc(F)cc4)cc3C(=O)N([C@H](C)CO)C[C@H]2C)cc1 | -6 | -4
O=C(C[C@@H]1C[C@H]2c3cc(NC(=O)c4ccc5c(c4)OCO5)ccc3O[C@H]2[C@@H](CO)O1)NCCc1ccccc1 | -4 | -9
C[C@H](O)C#Cc1cnc2c(c1)C(=O)N([C@H](C)CO)C[C@H](C)[C@@H](CN(C)C(=O)c1ccc(F)cc1)O2 | -8 | -9
C[C@@H]1CN([C@H](C)CO)S(=O)(=O)c2ccc(-c3ccccc3F)cc2O[C@@H]1CN(C)S(C)(=O)=O | 3 | 1
COc1ccc(CN(C)C[C@@H]2OCCCC[C@H](C)Oc3ccc(NS(=O)(=O)c4ccc(C)cc4)cc3C(=O)N([C@H](C)CO)C[C@H]2C)cc1 | ? | .
CCC(=O)N1CC2(CN(Cc3ccncc3)C2)c2c(n(C)c3cc(OC)ccc23)[C@H]1CO | 6 | -8
C[C@H]1CN([C@@H](C)CO)C(=O)c2cc(C#CCN(C)C)cnc2O[C@@H]1CN(C)Cc1ccc(C(=O)O)cc1 | 39 | 18
Cc1ccc(S(=O)(=O)N(C)C[C@H]2OCCCC[C@H](C)Oc3ccc(NS(C)(=O)=O)cc3C(=O)N([C@H](C)CO)C[C@@H]2C)cc1 | -2 | -2

Retrieved by compound from the entries so far, two records:
SMILES | Vaccinia inh | Vaccinia inh Venus
COc1ccc(NC(=O)N2CC[C@@H]3[C@@H](CO)N(C)c4ccc(-c5cccc(C(=O)N(C)C)c5)cc4[C@@H]32)cc1 | -5 | -6
CNC[C@@H]1Oc2cc(C#CC3(O)CCCC3)ccc2S(=O)(=O)N([C@@H](C)CO)C[C@H]1C | -6 | 0

Some of the compounds tested (hit frequency here may not be typical).
